# GLA inh pH 4.5 = qHTS Assay for Inhibitors of Human alpha-Galactosidase at pH 4.5; Alpha-galactosidase A (Homo sapiens), P06280; purified enzyme, 4-MU-alpha-Gal fluorescence, pH 4.5; activity change, negative = inhibition, % at 105 µM; 230,000 tested, under 10 active; inconclusive = small, poorly fitted or top-dose-only inhibition, or a rising curve; inactive = flat fitted curve, though single readings scatter; no compound was filed as active;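 further: 0% = full activity with enzyme and -100% = basal without enzyme; dose as in the result columns while the protocol names 77 µM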
# Target sequence (P06280 whole entry, looked up): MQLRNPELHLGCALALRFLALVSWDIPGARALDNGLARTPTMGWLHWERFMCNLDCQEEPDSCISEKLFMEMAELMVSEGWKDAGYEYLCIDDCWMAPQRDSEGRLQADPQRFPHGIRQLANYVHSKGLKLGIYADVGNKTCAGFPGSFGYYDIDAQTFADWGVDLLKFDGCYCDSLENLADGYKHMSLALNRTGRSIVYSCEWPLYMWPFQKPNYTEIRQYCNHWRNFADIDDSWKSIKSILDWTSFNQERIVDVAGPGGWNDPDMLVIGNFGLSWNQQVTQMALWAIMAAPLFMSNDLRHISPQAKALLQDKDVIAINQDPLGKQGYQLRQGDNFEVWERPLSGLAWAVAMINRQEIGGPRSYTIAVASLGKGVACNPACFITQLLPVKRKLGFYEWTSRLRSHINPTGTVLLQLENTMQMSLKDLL
# miR-21 reporter = qHTS Assay for Modulators of miRNAs and/orActivators of miR-21. HeLa miR-21 FLuc reporter, luciferase, 48 h. Potency, µM (doses to about 38.3 µM), for the others: top-dose reporter change, positive = more light. 340,000 tested, under 10 active. AID 2288, 2010; active = well fitted rising curve with a large enough effect; inconclusive = small, poorly fitted or top-dose-only effect; inactive = no such curve, though single readings can be large or run the other way;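 further: % of control where 0% means no effect; miR-21 action dims this reporter so a rising signal means less miR-21 action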
#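 HeLa miR-21-FLuc reporter line, endogenous miR-21; 2000 cells/well in DMEM/10% FBS; compound titration up to ~40uM final, 48 h, 37 degree Celsius; luciferase detection reagent, 15 min lysis, CCD luminescence.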
# Rango complex inh = qHTS Assay for Inhibitors of Rango (Ran-regulated importin-beta cargo) - Importin beta complex formation; Importin subunit beta-1 (Homo sapiens), Q14974; Rango CFP/YFP FRET sensor + importin beta, 45 min; Potency, µM (highest dose often 92.2 µM), for inactives: top-dose inhibition of complex formation; hit rate 0.031% among 340,000; AID 540263, 2011; active = rising FRET ratio curve, often small or poorly fitted; inconclusive = mostly compound fluorescence or quenching in the first reads; inactive = flat curves in all reads;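 further: potency means the concentration at half of the fitted maximal effect; 0% = DMSO wells and 100% = buffer wells lacking importin beta; nearly all actives have a fitted effect of over 15% in size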
#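 Inhibition scored from the CFP 486 nm/YFP 530 nm FRET ratio 45 min after adding 0.125 microM importin beta to 50 nM Rango biosensor preincubated 5 min with compound (room temperature, PBS with DTT, Tween-20, BSA). No-importin wells as positive control.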
# Rango release inh = qHTS Assay for Inhibitors of RanGTP induced Rango (Ran-regulated importin-beta cargo) - Importin beta complex dissociation | Potency, µM (series often up to 46.1 µM), without a hit: at the highest dose activity change, negative = inhibition | Snurportin-1 (Homo sapiens) + GTP-binding nuclear protein Ran (Homo sapiens) + Importin … | hit rate 0.071% among 340,000 | Biochemical FRET Rango-importin beta, RanGTP-induced dissociation; active means falling FRET ratio curve, often poorly fitted, with flat reads before Ran was added; inconclusive means other falling curves, or compound fluorescence or quenching; inactive means flat or rising ratio curve;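 further: potency means the concentration at half of the fitted maximal effect; % of control where 0% means no effect; nearly all actives have a fitted effect of over 45% in size; -100% = wells without RanGTP and RCC1; the record marks most hits as doubtful in a second field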
#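 Rango FRET biosensor (snurportin-1 IBB flanked by N-terminal EYFP and C-terminal CFP10) at 0.1 uM, with 0.25 uM importin beta in PBS, 1mM DTT, 0.02% Tween-20, 0.1% BSA. 0.6 uM Ran, 2mM GTP and 0.2 uM RCC1 were then added for 45 min at room temperature. Inhibition read as loss of FRET rise.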
# * = called active by the depositor; ? = inconclusive; · = no result given; & = joins results of further samples.
SMILES | GLA inh pH 4.5 | miR-21 reporter | Rango complex inh | Rango release inh
COc1ccc(-n2cnnc2SCC(=O)Nc2nc(C)c(Cl)cc2Cl)cc1 | 6.2 | -6.4% | -0.8% | -0.6%
CC(=O)Nc1cccc(Cl)c1C(=O)O | 3.3 | -6.4% | 5.9% | 3.8%
COc1ccc(-c2nnc(SCC(=O)N3CCN(c4ccccc4)CC3)o2)cc1OC | -6.0 | -2.5% | -3.2% | 16.2%
CCOC(=O)C1CCN(C(=O)C2CCN(S(=O)(=O)CC)CC2)CC1 | 4.3 | -3.4% | -1.9% | 11.2%
COc1ccc(/C=N/Nc2cc(C)nc(N3CCOCC3)n2)cc1 | -10.3 | -7.4% | 0.4% | -2.7%
CC(C)CN(C(=O)COC(=O)c1ccccc1Sc1ccccc1C#N)C1CCS(=O)(=O)C1 (stereo not given) | -5.5 | -8.1% | -3.2% | 1.1%
Cc1nc2ccc(S(=O)(=O)Nc3cc(-c4nc5cccnc5s4)ccc3C)cc2s1 | -1.0 | -26.3% | ? | ?
CCOc1ccc(C2c3[nH]c4ccccc4c3CCN2CCCn2cccn2)cc1 (stereo not given) | -4.6 | -4.9% | 0.8% | -10.7%
COc1ccc(CN2CCNC(=O)C2CC(=O)O)c(OC)c1 (stereo not given) | 4.1 | -0.6% | -4.4% | -8.7%
COc1ccc(C(=O)N2CCC(n3nccc3NC(=O)C3CC3)CC2)c(OC)c1OC | · | -2.2% | 4.6% | 0.2%
O=C(Nc1ccc(N2CCOCC2)cc1)C1(c2ccc(Cl)cc2)CCC1 | -2.4 | -2.2% | -0.4% | 5.3%
CON(C)C(=O)CC(CNC(=O)OC(C)(C)C)c1ccc(Cl)cc1 (stereo not given) | · | · | 1.6% | -6.9%
O=C(CN1CCN(c2ccccn2)CC1)NCCc1ccccc1 | 11.3 | -13.4% | -0.1% | 10.1%
CCN(C[C@H]1N[C@@](C)(C(=O)OC)[C@H]2C(=O)N(Cc3ccccc3)C(=O)[C@@H]12)C(=O)Nc1ccc(Cl)cc1 | · | · | 2.3% | 8.9%
CC(C)COC(=O)n1c(=O)oc2cc(S(=O)(=O)N3CCCCC3)ccc21 | -9.7 | 0.0% | 0.6% | 4.7%
COc1ccc(C(=O)C2CCCN(C(=O)c3ccc(C(C)=O)s3)C2)c(C)c1 (stereo not given) | · | -3.1% | -1.2% | -20.2%
Cn1c(SCC(=O)N2CCOCC2)nnc1-c1ccncc1 | · | -2.0% | 0.9% | -0.4%
O=C(NCc1ccc2c(c1)OCO2)Nc1cccc2ccccc12 | 8.1 | 2.1% | 8.1% | -8.5%
CCc1nnc(NC(=O)CSc2nnc(CSc3nc(C)cc(C)n3)o2)s1 | -0.9 | -5.7% | 1.3% | 6.8%
CCOc1ccc(NC(=O)CC2C(=O)N(c3ccccc3)C(=O)N2CCc2cccs2)cc1 (stereo not given) | -4.2 | 5.0%&-1.5% | -0.7% | -8.8%
Cc1ccc(C(C)C)c(OCCN2C(=O)NC(C)(C)C2=O)c1 | -4.2 | -5.5% | -3.0% | 0.7%
Cc1ccccc1OCCc1c(C)[nH]c(=S)[nH]c1=O | 7.5 | 28.8% | 1.3% | 6.7%
O=C(Cc1cccs1)Nc1ccccc1NC(=O)Cc1cccs1 | -0.1 | -0.4% | -1.2% | 15.9%
CCCOC(=O)C1=C(C)NC2=C(C(=O)CC(C)(C)C2)C1c1ccc(N(C)C)cc1 (stereo not given) | -0.3 | -4.2% | 6.8% | -1.0%
Cc1cccc(N2CCN(C(=O)C3CCN(S(=O)(=O)c4cccc5nsnc45)CC3)CC2C)c1 (stereo not given) | 2.0 | ? | -1.8% | 6.0%
Cc1cc2oc3c(c(=O)c2cc1C)C(c1ccc(F)cc1)N(CCCN1CCOCC1)C3=O (stereo not given) | -20.5 | -7.8% | 0.7% | -14.8%
O=C(NCc1ccc(Cl)cc1)c1ccccc1CCc1ccccc1 | -2.2 | -4.3% | 1.1% | 16.6%
COc1ccccc1CN(Cc1nc2ccccc2c(=O)[nH]1)C(=O)Nc1cccc(C)c1 | -2.5 | -3.5% | 0.2% | 11.8%
C=CCn1c(-c2ccc3ncccc3c2)n[nH]c1=S | 5.4 | -8.0% | -1.5% | -19.2%
Cc1noc(C)c1C(=O)N1CC(C)OC(C)C1 (stereo not given) | -9.1 | 0.0% | -1.9% | 0.6%
COc1ccc(C(=O)Nc2cccc(-c3csc(C)n3)c2)cc1S(=O)(=O)N1CCCC1 | · | · | 0.2% | -2.6%
O=C(O)CC1CCS(=O)(=O)C1 (stereo not given) | 2.9 | -3.3% | 2.5% | 2.3%

# Compound profiles, as listed above:
# `C=CCn1c(-c2ccc3ncccc3c2)n[nH]c1=S` is entered as GLA inh pH 4.5: 5.4; miR-21 reporter: -8.0%; Rango complex inh: -1.5%; Rango release inh: -19.2%
# `COc1ccccc1CN(Cc1nc2ccccc2c(=O)[nH]1)C(=O)Nc1cccc(C)c1` is entered as GLA inh pH 4.5: -2.5; miR-21 reporter: -3.5%; Rango complex inh: 0.2%; Rango release inh: 11.8%
# `Cc1noc(C)c1C(=O)N1CC(C)OC(C)C1` (stereo not given) is entered as GLA inh pH 4.5: -9.1; miR-21 reporter: 0.0%; Rango complex inh: -1.9%; Rango release inh: 0.6%

# Later entries.
SMILES | GLA inh pH 4.5 | miR-21 reporter | Rango complex inh | Rango release inh
COc1ccc(C(=O)NCCc2ccc(F)cc2)cc1OC | 4.3 | -35.3% | -4.0% | 14.6%
COc1cc(NC(=O)CNC(c2ccccc2)c2ccccc2)cc(OC)c1OC | · | 8.7% | -3.1% | 9.1%
CNC(=O)NC(=O)C(C)OC(=O)CCCc1nc2ccccc2s1 (stereo not given) | -1.4 | 6.1% | 3.9% | -3.4%
C/C(Cc1ccccc1)=N\NC(=O)CNC(=O)c1ccc(F)cc1 | · | 4.0% | 5.3% | 9.1%
COc1ccccc1S(=O)(=O)Cc1ccc(C(=O)NCC2CCCO2)o1 (stereo not given) | -9.6 | -0.4% | -2.1% | 0.2%
CN(C)S(=O)(=O)c1ccc2c(c1)nc(CCC(=O)Nc1ccc3c(c1)OCO3)n2C | 7.1 | -12.2% | ? | ?
CO/N=C/c1ccc(N2CCN(C(=O)c3ccc(F)cc3)CC2)c([N+](=O)[O-])c1 | -5.5 | 14.0% | 7.2% | 16.2%
CCOc1ccc(C(=O)c2cc([N+](=O)[O-])ccc2N2CCOCC2)cc1 | -0.4 | 21.3% | -0.6% | 1.0%
COc1ccc2c(c1)C(=C(C#N)C#N)C(=O)N2CCc1ccccc1 | -0.3 | -2.8% | 1.9% | -1.4%
CCC(C)(C)NC(=O)CN(Cc1cccs1)C(=O)CNS(=O)(=O)c1ccc(F)cc1 | 5.8 | -0.1% | 10.2% | -15.2%
Cc1cc(NC(=O)c2c(Cl)cccc2Cl)no1 | 10.3 | 4.9% | -1.7% | 2.8%
Nc1nc2n(n1)C(c1cccc(Br)c1)CC(c1ccc(F)cc1)N2 (stereo not given) | 3.1 | -8.4% | 1.1% | -15.6%
C=C(C)CNC(=S)N/N=C/c1ccc([N+](=O)[O-])cc1 | -6.5 | -10.2% | 3.0% | 4.3%
CCOC(=O)N(C)OC(=O)Nc1ccc(Cl)c(Cl)c1 | 2.1 | -2.9% | 0.6% | -14.2%
COc1cccc(CNc2ccc([N+](=O)[O-])cc2Cl)c1O | -10.6 | -25.1% | 1.1% | 15.4%
Cc1ccc(-c2nc3ccccc3c(=O)n2CCN2CCOCC2)cc1 | 2.1 | -10.9% | -4.9% | 1.6%
Cc1cc(=O)[nH]c(N/N=C/c2c(O)n(-c3ccccc3)c(=O)c3ccccc23)n1 | -11.1 | -13.5% | ? | ?
CCCNCc1cc(OC)c(OCCC)cc1Cl | -6.9 | -0.1% | -3.0% | -7.4%
COc1ccc(/C=C/C(=O)O)cc1S(=O)(=O)Nc1ccc2c(c1)OCO2 | -1.4 | -8.9% | -0.5% | -9.7%
Cc1cc(C)c(OCCCCn2cnc3ccccc3c2=O)c(C)c1 | -6.1 | 0.4% | -0.5% | 7.7%
Cc1ccc(S(=O)(=O)Nc2cc(C(C(=O)OC(C)C)C(=O)C(F)(F)F)c(O)c3ccccc23)c(C)c1 (stereo not given) | -20.1 | 10.1% | -0.4% | 26.0%
CC(=O)N1CC(C)Oc2ccc(S(=O)(=O)Nc3ccc(Cl)cn3)cc21 (stereo not given) | · | -0.9% | -0.9% | -10.4%
O=C(COC(=O)c1ccccc1Nc1ccccc1)NCc1ccccc1 | 6.6 | -11.5% | -1.0% | ?
CCOC(=O)c1c(-c2ccc(C)cc2)csc1NC1=NS(=O)(=O)c2ccccc21 | -6.2 | 0.4% | -1.4% | 0.5%

# The final four compounds of the part before open the next one.
SMILES | GLA inh pH 4.5 | miR-21 reporter | Rango complex inh | Rango release inh
Cc1ccc(S(=O)(=O)Nc2cc(C(C(=O)OC(C)C)C(=O)C(F)(F)F)c(O)c3ccccc23)c(C)c1 (stereo not given) | -20.1 | 10.1% | -0.4% | 26.0%
CC(=O)N1CC(C)Oc2ccc(S(=O)(=O)Nc3ccc(Cl)cn3)cc21 (stereo not given) | · | -0.9% | -0.9% | -10.4%
O=C(COC(=O)c1ccccc1Nc1ccccc1)NCc1ccccc1 | 6.6 | -11.5% | -1.0% | ?
CCOC(=O)c1c(-c2ccc(C)cc2)csc1NC1=NS(=O)(=O)c2ccccc21 | -6.2 | 0.4% | -1.4% | 0.5%
COC(=O)c1cc(S(=O)(=O)NCc2ccc(Br)cc2)c[nH]1 | · | -5.1% | -0.6% | 1.0%
O=C(NC1CCCC1)c1cccc(Cl)c1 | 3.7 | -6.3% | -2.5% | -6.9%
CCOc1ccc(S(=O)(=O)NCc2ccc(Cl)cc2)c2cccnc12 | 2.1 | -13.1% | ? | -3.6%
O=C(OCc1ccccc1Cl)c1cc([N+](=O)[O-])ccc1N1CCOCC1 | · | · | 3.9% | 3.8%
COc1ccc(OC)c(S(=O)(=O)NC(C)CCc2ccccc2)c1 (stereo not given) | · | -2.9% | 1.0% | -4.5%
CCOc1cc(CN2CCN(c3cccc(C(F)(F)F)c3)CC2)ccc1OC | -6.2 | 0.0% | -1.1% | 0.7%
CN1CCCCc2c1nc1ccccc1c2N (tested in a mixture with another compound) | -4.4 | -13.0% | ? | ?
Cc1nn(C)cc1/C=N/NC(=O)c1ccc2c(c1)OCO2 | 3.0 | -13.0% | 5.4% | 2.7%
NC(=O)c1ncc(C(F)(F)F)cc1Oc1ccc(C(F)(F)F)cc1 | -1.1 | 7.2% | -0.7% | 0.8%
CCCCC(=O)Nc1ccccc1N1CCN(c2ccccc2)CC1 | -0.5 | 6.8% | -2.9% | -7.8%
Cc1nn(C)cc1/C=N/O | -11.9 | -5.4% | 3.2% | 4.5%
COc1ccc(NC(=S)Nc2ccc(S(N)(=O)=O)cc2)c(OC)c1 | -0.4 | 0.9% | ? | 31.5%
CN1CCN(c2ccccc2/C=N/NC(=O)c2cccnc2)CC1 | -19.8 | -4.5% | 0.6% | 4.1%
Cc1ccc(C(=O)NC2CCN(CC(=O)NCc3cccs3)CC2)cc1 | 1.8 | -4.6% | -3.9% | -2.1%
O=C(Nc1ccc(S(=O)(=O)Nc2ncccn2)cc1)c1ccccc1 | · | 1.8% | -2.3% | -5.0%
O=C(COC(=O)CC12CC3CC(CC(C3)C1)C2)Nc1cccnc1Cl | 1.1 | -18.6% | -4.6% | 21.6%

# Source: PubChem BioAssay

# Not all compounds are listed; count on the stated rates, not on these rows.
